# Ecoli rRNA inh – inhibits bacterial ribosomal RNA function over humanized ribosomes | 1.6% of 350,000 active | AID 720706 | GFP signal change (wild-type ribosome), % (concentration not given with the values) | E. coli WT GFP vs humanized-ribosome RFP mutants, fluorescence, 24 h; stronger effect = lower value; DMSO median 0, no signal -100;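 active means significant combined selectivity score with lowered wild-type GFP, culture density cut under 30%, mutant RFP and density less affected; inactive means any of these conditions unmet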; further: one replicate is shown; some compounds called inactive have numbers as strong as hits
# Ecoli rRNA inh OD600 – second read-out of Ecoli rRNA inh, no call of its own (marks repeat the call); OD600 change, %; measured here: OD600 growth;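 optical density of the mix in the first replicate; 0 = DMSO median and -100 = no signal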
# Ecoli rRNA inh RFP – recorded beside Ecoli rRNA inh, whose call it bears; RFP signal change, %; measured here: RFP humanized mutant strains;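 first replicate; 0 = DMSO median and -100 = no signal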
# * = called active by the depositor; i = inactive; x = not tested or not shown.
SMILES,Ecoli rRNA inh,Ecoli rRNA inh OD600,Ecoli rRNA inh RFP
C[C@@H]1CCCCO[C@@H](CN(C)S(=O)(=O)c2cccs2)[C@H](C)CN([C@H](C)CO)C(=O)c2cc(NC(=O)c3ccccc3)ccc2O1,-4,2,6.7
CC(C)[C@H]1CC=CC[C@@H](C)Oc2ccccc2C(=O)N(C)[C@H](C)C(=O)N1 (mixture of isomers),-4,5,-7.5
C[C@@H]1C(=O)NCCC=CC[C@H](C)Oc2ccccc2C(=O)N1C (mixture of isomers),4,6,0.2
C[C@H]1CN([C@@H](C)CO)S(=O)(=O)c2ccc(C#Cc3cccnc3)cc2O[C@H]1CN(C)CC1CC1,-2,5,-0.3
COc1ccc(S(=O)(=O)Nc2ccc3c(c2)C(=O)N([C@H](C)CO)C[C@H](C)[C@@H](CN(C)Cc2ccccc2)OCCCC[C@H](C)O3)cc1,-3,0,1.6
CC(C)[C@H]1C(=O)N[C@H](c2cccc(Cl)c2)CC=CC[C@H](C)Oc2ccccc2C(=O)N1C (mixture of isomers),-9,-16,-3.8
COc1cccc(CN2[C@H](CO)[C@@H](c3ccccc3)C23CN(Cc2ccccc2)C3)c1,-5,-4,0.9
COc1ccc(N2C(=O)c3[nH]nc(-c4ccccc4)c3C2c2ccc(Br)cc2)cc1 (configuration not stated),6,1,4.5
COc1ccc(NC(=O)Nc2ccc3c(c2)CC(=O)N([C@H](C)CO)C[C@@H](C)[C@H](CN(C)Cc2ccc(C(F)(F)F)cc2)O3)cc1,2,7,1.9
C[C@H]1CN([C@@H](C)CO)C(=O)Cc2cc(NC(=O)Nc3ccc(F)cc3)ccc2O[C@H]1CN(C)C(=O)Nc1ccc(C(F)(F)F)cc1,-2,-3,-1.9
CCCC(=O)Nc1ccc2c(c1)C(=O)N(C)C[C@@H](OC)[C@H](C)CN(Cc1ccncc1)[C@H](C)CO2,-3,5,0.2
C[C@H](CO)N1C[C@H](C)[C@@H](CN(C)Cc2ccc(Oc3ccccc3)cc2)Oc2c(NC(=O)CCC(F)(F)F)cccc2C1=O,-1,2,1.6
C[C@H]1CN([C@@H](C)CO)C(=O)Cc2cc(NC(=O)Cn3cnnn3)ccc2O[C@H]1CN(C)C(=O)Nc1cccc2ccccc12,4,-1,-0.7
CC(C)NC(=O)Nc1ccc2c(c1)C(=O)N([C@@H](C)CO)C[C@@H](C)[C@H](CN(C)Cc1ccc3c(c1)OCO3)OCCCC[C@@H](C)O2,6,5,1.5
C[C@H](CO)N1C[C@H](C)[C@H](CN(C)CC2CC2)OCCCC[C@H](C)Oc2ccc(NC(=O)Nc3cccc4ccccc34)cc2C1=O,1,-8,1.1
CCS(=O)(=O)Nc1ccc2c(c1)C(=O)N(C)C[C@@H](OC)[C@H](C)CN(CC1CCCC1)[C@H](C)CO2,0,-7,-2.2
c1ccc(CN2[C@@H]3CNC[C@H]2C3c2ccc(-c3cccnc3)cc2)nc1 (some centres not stated),4,5,1.2
C[C@@H]1CCCCO[C@@H](CN(C)S(=O)(=O)c2ccc(F)cc2)[C@H](C)CN([C@@H](C)CO)C(=O)c2cc(NS(=O)(=O)c3ccc(F)cc3)ccc2O1,-1,2,2.4
CCCNC(=O)Nc1ccc2c(c1)C(=O)N(C)C[C@H](OC)[C@@H](C)CN(Cc1ccccn1)[C@@H](C)CO2,5,9,-1.7
CNC[C@H]1OCCCC[C@H](C)Oc2ccc(NC(=O)CCC(F)(F)F)cc2C(=O)N([C@H](C)CO)C[C@@H]1C,6,11,-1.3

# Laid out differently: results already given.
# Sequence of screens – Ecoli rRNA inh, Ecoli rRNA inh OD600, Ecoli rRNA inh RFP
COc1ccc(NC(=O)Nc2ccc3c(c2)CC(=O)N([C@H](C)CO)C[C@@H](C)[C@H](CN(C)Cc2ccc(C(F)(F)F)cc2)O3)cc1
 : 2, 7, 1.9
C[C@H]1CN([C@@H](C)CO)C(=O)Cc2cc(NC(=O)Nc3ccc(F)cc3)ccc2O[C@H]1CN(C)C(=O)Nc1ccc(C(F)(F)F)cc1
 : -2, -3, -1.9
CCCC(=O)Nc1ccc2c(c1)C(=O)N(C)C[C@@H](OC)[C@H](C)CN(Cc1ccncc1)[C@H](C)CO2
 : -3, 5, 0.2
C[C@H](CO)N1C[C@H](C)[C@@H](CN(C)Cc2ccc(Oc3ccccc3)cc2)Oc2c(NC(=O)CCC(F)(F)F)cccc2C1=O
 : -1, 2, 1.6
C[C@H]1CN([C@@H](C)CO)C(=O)Cc2cc(NC(=O)Cn3cnnn3)ccc2O[C@H]1CN(C)C(=O)Nc1cccc2ccccc12
 : 4, -1, -0.7
CC(C)NC(=O)Nc1ccc2c(c1)C(=O)N([C@@H](C)CO)C[C@@H](C)[C@H](CN(C)Cc1ccc3c(c1)OCO3)OCCCC[C@@H](C)O2
 : 6, 5, 1.5
C[C@H](CO)N1C[C@H](C)[C@H](CN(C)CC2CC2)OCCCC[C@H](C)Oc2ccc(NC(=O)Nc3cccc4ccccc34)cc2C1=O
 : 1, -8, 1.1
CCS(=O)(=O)Nc1ccc2c(c1)C(=O)N(C)C[C@@H](OC)[C@H](C)CN(CC1CCCC1)[C@H](C)CO2
 : 0, -7, -2.2
c1ccc(CN2[C@@H]3CNC[C@H]2C3c2ccc(-c3cccnc3)cc2)nc1 (some centres not stated)
 : 4, 5, 1.2

# (cont.)
SMILES,Ecoli rRNA inh,Ecoli rRNA inh OD600,Ecoli rRNA inh RFP
O=C(NC1CCC1)[C@H]1[C@H](CO)[C@H]2Cn3c(cccc3=O)[C@@H]1N2Cc1cc(F)ccc1F,1,2,-2.3
C[C@H]1CN([C@@H](C)CO)C(=O)Cc2cc(NS(=O)(=O)c3cn(C)cn3)ccc2O[C@H]1CN(C)Cc1ccc2c(c1)OCO2,5,7,-0.5
C[C@H]1CN([C@@H](C)CO)C(=O)c2cc(C#Cc3cccnc3)cnc2O[C@@H]1CN(C)Cc1ccncc1,-1,2,0.7
C[C@@H]1CN([C@H](C)CO)C(=O)c2cc(NS(C)(=O)=O)ccc2O[C@@H](C)CCCCO[C@@H]1CN(C)S(C)(=O)=O,1,1,-3.1
C[C@@H]1CN([C@@H](C)CO)C(=O)Cc2cc(NC(=O)Nc3ccc(F)cc3)ccc2O[C@H]1CN(C)C(=O)Nc1ccc(C(F)(F)F)cc1,-5,5,3.6
CCCNC(=O)N1[C@@H](CO)[C@@H]2c3ccccc3N(C(=O)Nc3ccccc3)C[C@@H]21,1,1,-1.9
O=C(C[C@@H]1CC[C@@H]2[C@H](COC[C@@H](O)CN2Cc2cc(F)ccc2F)O1)NCc1ccc(Oc2ccccc2)cc1,i,x,x
Cc1noc(C)c1NC(=O)Nc1ccc2c(c1)C(=O)N([C@H](C)CO)C[C@@H](C)[C@@H](CN(C)Cc1ccc3c(c1)OCO3)OCCCC[C@@H](C)O2,1,4,-0.5
Cc1noc(C)c1NC(=O)N(C)C[C@H]1Oc2ccc(NS(=O)(=O)c3cccs3)cc2CC(=O)N([C@@H](C)CO)C[C@H]1C,2,4,-2.3
CC(C)C#Cc1ccc2c(c1)O[C@H](CN(C)Cc1ccncc1)[C@H](C)CN([C@@H](C)CO)S2(=O)=O,-4,-4,2.8
COc1ccc(NC(=O)Nc2ccc3c(c2)CC(=O)N([C@@H](C)CO)C[C@@H](C)[C@H](CN(C)C(=O)Nc2cccc4ccccc24)O3)cc1,-3,-5,-1.0
CC(C)CC#Cc1ccc([C@H]2[C@H](CO)N3C(=O)CN(C(=O)CN4CCOCC4)C[C@@H]23)cc1,3,2,4.0
Cc1noc(C)c1NC(=O)N(C)C[C@H]1Oc2ccc(NS(C)(=O)=O)cc2CC(=O)N([C@H](C)CO)C[C@H]1C,-1,1,1.0
C[C@H]1CN([C@@H](C)CO)S(=O)(=O)c2ccc(C#CC3CCCC3)cc2O[C@H]1CN(C)Cc1cncnc1,-21,-44,30
CCCNC(=O)Nc1ccc2c(c1)C(=O)N(C)[C@@H]1CC[C@@H](CC(=O)NC3CCC3)O[C@H]1CO2,2,7,2.8
O=C(Cc1cccnc1)N1CC2(C1)[C@H](c1ccccc1)[C@@H](CO)N2C(=O)C1CCOCC1,4,15,-3.6
COCCNC(=O)C[C@H]1C[C@@H]2c3cc(NC(=O)Nc4ccccc4F)ccc3O[C@@H]2[C@H](CO)O1,2,1,-0.2
C[C@@H]1CN([C@H](C)CO)C(=O)c2cccc(NS(=O)(=O)c3ccc(F)cc3)c2O[C@@H]1CN(C)S(=O)(=O)c1cn(C)cn1,5,5,-0.4
C[C@@H]1CN([C@@H](C)CO)C(=O)Cc2cc(NS(=O)(=O)c3ccc(Cl)cc3)ccc2O[C@H]1CN(C)Cc1ccc(-c2ccccc2)cc1,5,5,0.3
C[C@H]1CN([C@@H](C)CO)C(=O)Cc2cc(NS(=O)(=O)c3ccc(Cl)cc3)ccc2O[C@H]1CN(C)Cc1ccc(-c2ccccc2)cc1,1,-2,1.5
CC(C)C(=O)Nc1ccc2c(c1)C(=O)N(C)[C@H]1CC[C@@H](CC(=O)N[C@@H](C)c3ccccc3)O[C@H]1CO2,-3,-6,0.3
CC(C)C1=CC2C3C(C(C(C)C)=CC(=O)[C@@]3(C)O)C1C(=O)C2(C)O (some centres not stated),37,26,3.2
Cc1cc(N2CCNC[C@@H]2C)ccc1N1CCN(Cc2ccccc2)[C@H](C)C1,26,14,1.4
Cc1noc(C)c1S(=O)(=O)Nc1ccc2c(c1)C(=O)N([C@@H](C)CO)C[C@@H](C)[C@H](CN(C)Cc1ccc(C(=O)Nc3ccccc3N)cc1)O2,-2,-2,-0.9
CN1CCCCC(NC(=O)CSc2ccccc2)C1=O (configuration not stated),9,10,2.1
CNC[C@@H]1Oc2ccc(NC(=O)NC(C)C)cc2C(=O)N(C)C[C@@H]1C,2,0,-1.2
O=C(N[C@H](Cc1ccccc1)C(=O)N1CCN(c2ccc(Cl)cn2)CC1)[C@H]1O[C@@H](n2ccc(=O)[nH]c2=O)[C@H](O)[C@@H]1O,7,13,4.0
Cc1noc(C)c1NC(=O)N(C)C[C@H]1Oc2ccc(NC(=O)Cn3cnnn3)cc2CC(=O)N([C@H](C)CO)C[C@@H]1C,2,-2,-0.2
CO[C@@H]1CN(C)C(=O)c2ccc(NS(=O)(=O)CC(F)(F)F)cc2OC[C@@H](C)N(C(=O)NC(C)C)C[C@@H]1C,-2,6,-0.8
O=C(Cc1ccccc1)N1CC[C@@H]2[C@H](CO)Nc3ccc(-c4ccc(F)cc4)cc3[C@@H]21,-51,-65,-7.2
COc1ccc(S(=O)(=O)N(C)C[C@@H]2Oc3ccc(NS(=O)(=O)c4ccc(C)cc4)cc3CC(=O)N([C@H](C)CO)C[C@@H]2C)cc1,1,-6,0.5
C[C@H]1CN([C@@H](C)CO)C(=O)Cc2cc(NC(=O)Cc3cn(C)c4ccccc34)ccc2O[C@@H]1CN(C)Cc1ccc(Oc2ccccc2)cc1,6,8,0.0
CCCC(=O)Nc1ccc2c(c1)C(=O)N(C)[C@H]1CC[C@@H](CC(=O)NCCOC)O[C@@H]1CO2,1,-2,-1.1
COC(=O)C1=C(C)N(C)C(=NCc2ccc(C(F)(F)F)cc2)NC1c1cccc(Cl)c1 (configuration not stated),-39,-72,-14
Cc1ccc(S(=O)(=O)Nc2cccc3c2O[C@@H](CN(C)C(=O)Nc2cccc4ccccc24)[C@@H](C)CN([C@H](C)CO)C3=O)cc1,2,5,-0.1
C[C@@H]1CCCCO[C@H](CN(C)C(=O)Nc2cccc3ccccc23)[C@@H](C)CN([C@@H](C)CO)C(=O)c2cc(N(C)C)ccc2O1,-4,6,0.0
Cc1ccc(S(=O)(=O)N(C)C[C@H]2OCCCC[C@@H](C)Oc3ccc(NC(=O)C4CCCCC4)cc3C(=O)N([C@H](C)CO)C[C@H]2C)cc1,-2,-4,1.8
COc1ccc2c(c1)[C@@H](NC(=O)c1ccncc1)[C@@H]1Cc3ccccc3[C@H]21,-20,-10,-0.8
C[C@H](CO)N1C[C@H](C)[C@H](CN(C)C(=O)Nc2ccc3c(c2)OCO3)OCCCC[C@H](C)Oc2ccc(N(C)C)cc2C1=O,-4,-8,2.2
C[C@H](CO)N1C[C@H](C)[C@@H](CN(C)C)OCCCC[C@H](C)Oc2ccc(NC(=O)CCC(F)(F)F)cc2C1=O,1,3,-1.5
CC(=O)N1CCN(c2ccc(N3CCN(Cc4ccccc4)[C@H](C)C3)c(C)c2)[C@H](C)C1,-6,-1,6.5
CNC[C@@H]1Oc2ccc(NC(C)=O)cc2CC(=O)N(C)C[C@@H]1C,-1,2,0.7
CCNC(=O)C[C@H]1CC[C@@H]2[C@H](COC[C@@H](O)CN2C(=O)c2ccccn2)O1,3,4,0.5
CCCNC(=O)N1C[C@H]2[C@@H](c3ccccc31)[C@H](CO)N2C(=O)CN1CCOCC1,4,1,-0.6
C[C@H](CO)N1C[C@H](C)[C@@H](CN(C)Cc2ccc3c(c2)OCO3)OCc2ccccc2-c2c(n(C)c3ccccc23)C1=O,-37,-42,18
Cc1ccc(S(=O)(=O)N(C)C[C@H]2OCCCC[C@H](C)Oc3ccc(NC(=O)C4CCCCC4)cc3C(=O)N([C@@H](C)CO)C[C@H]2C)cc1,0,-1,6.7
C[C@@H]1CN([C@@H](C)CO)S(=O)(=O)c2ccc(-c3ccc(C(=O)N(C)C)cc3)cc2O[C@@H]1CN(C)C(=O)C1CC1,4,6,-0.2
CO[C@@H]1CN(C)C(=O)c2ccc(NC(=O)NC3CCCCC3)cc2OC[C@@H](C)N(C(C)=O)C[C@H]1C,3,2,-2.3
O=C(NCCc1ccncc1)[C@H]1[C@H](CO)[C@H]2Cn3c(ccc(C4=CCCCC4)c3=O)[C@@H]1N2CC1CC1,2,-6,0.0
C[C@H]1CN([C@@H](C)CO)C(=O)Cc2cc(NS(=O)(=O)c3cn(C)cn3)ccc2O[C@H]1CN(C)C(=O)NC1CCCCC1,0,14,-2.0
CO[C@H]1CN(C)C(=O)c2cc(NC(=O)c3cccc(Oc4ccccc4)c3)ccc2OC[C@@H](C)NC[C@@H]1C,-5,0,16

# Assay outcomes (PubChem)

# Only part of the results is shown; rates above refer to the full screens.
